# ALR inh = inhibitors of human sulfhydryl oxidase ALR. purified ALR, DTT oxidation, H2O2 HRP-luminol luminescence. inhibition, % (concentration not given with the values). 290,000 tested, 3.8% active. AID 485317;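 active means mean and each replicate at 75% or more; inconclusive means only one of the two met; inactive means neither met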;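 further: stock transfer was 7.5 nL into about 7.5 µL; 0% = neutral wells and 100% = wells with inactivated enzyme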
# HNF4A DNA FP = change in binding of human HNF4 alpha to DNA. activity change, % at 10 µM. 360,000 tested, 0.3% active. P41235. HNF4a-FITC DNA binding, fluorescence polarization, 1 h; in the data active means activity change above about 30%, passing the limit was not always enough;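 further: controls were the assay level and a saturating level of protein; the project sought stronger binding though the title names inhibitors; some compounds called inactive have numbers as strong as hits; positive values seem to mean higher polarization but the record does not say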
# LANA-H2B inh = blocks KSHV LANA binding to histone H2A/H2B; AID 2629; cell-free LANA-H2A/H2B peptide, fluorescence polarization; inhibition, % (test concentration not listed); 320,000 tested, 0.6% active; in the data active means inhibition mostly above about 10%, no sharp cut-off; inactive means mostly below about 6.7%;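 further: stock transfer was 7.5 nL into about 10 µL; 0% = median of vehicle wells and 100% = median of positive control wells; one replicate is shown; the record names a cut of 25% in any replicate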
# Target sequence (Q9QR71 whole entry, looked up): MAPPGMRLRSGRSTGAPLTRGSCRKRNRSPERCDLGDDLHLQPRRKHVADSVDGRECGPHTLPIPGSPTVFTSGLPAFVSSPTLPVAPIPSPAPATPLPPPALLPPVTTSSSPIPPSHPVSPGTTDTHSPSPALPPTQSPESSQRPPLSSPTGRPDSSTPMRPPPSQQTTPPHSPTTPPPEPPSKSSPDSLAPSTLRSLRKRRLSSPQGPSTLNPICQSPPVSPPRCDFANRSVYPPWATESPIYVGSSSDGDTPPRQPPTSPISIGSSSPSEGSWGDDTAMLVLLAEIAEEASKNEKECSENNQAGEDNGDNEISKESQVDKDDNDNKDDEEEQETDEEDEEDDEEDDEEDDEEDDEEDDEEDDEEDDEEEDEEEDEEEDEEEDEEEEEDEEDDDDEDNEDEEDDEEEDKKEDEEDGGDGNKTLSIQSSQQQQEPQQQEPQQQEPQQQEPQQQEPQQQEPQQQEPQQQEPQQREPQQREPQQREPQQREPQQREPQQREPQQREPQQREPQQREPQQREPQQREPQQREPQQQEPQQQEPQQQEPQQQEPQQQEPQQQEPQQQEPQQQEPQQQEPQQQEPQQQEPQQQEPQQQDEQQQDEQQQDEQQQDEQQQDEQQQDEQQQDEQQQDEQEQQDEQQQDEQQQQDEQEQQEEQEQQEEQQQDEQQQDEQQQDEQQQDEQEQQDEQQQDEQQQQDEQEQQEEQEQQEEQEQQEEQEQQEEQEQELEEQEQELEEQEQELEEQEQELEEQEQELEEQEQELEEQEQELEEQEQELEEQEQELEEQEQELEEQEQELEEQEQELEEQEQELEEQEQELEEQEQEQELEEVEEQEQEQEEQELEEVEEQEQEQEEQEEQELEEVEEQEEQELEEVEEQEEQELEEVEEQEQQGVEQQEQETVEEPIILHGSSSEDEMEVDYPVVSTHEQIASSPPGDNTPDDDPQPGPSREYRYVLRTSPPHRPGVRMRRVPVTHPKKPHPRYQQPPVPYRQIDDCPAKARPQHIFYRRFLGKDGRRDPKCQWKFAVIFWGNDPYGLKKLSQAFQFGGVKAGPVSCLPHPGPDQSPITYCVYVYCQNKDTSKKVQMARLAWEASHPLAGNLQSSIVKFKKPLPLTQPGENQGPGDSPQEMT
# RanGTP-Impb inh = disruptors of Ran-importin-beta complex formation – biochemical, FRET, CFP-Ran, YFP-importin-beta, homogeneous, primary screen. cell-free CFP-Ran/YFP-importin-beta FRET ratio. inhibition, % (test concentration not listed). 300,000 tested, 1.1% active. AID 2216;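 active means most replicates above 15%; inconclusive means exactly half above 15%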;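 further: 0% = DMSO wells and 100% = Ran loaded with GDP instead of GTP; wells of about 40 µL received 100 nL stock; the first replicate is given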
# Beta2AR agonist = human beta-2 adrenergic receptor agonism by FAP | response, % (test concentration not listed) | AID 504454 | Am2.2-beta2AR cells, FAP receptor internalization, flow cytometry; reference of the scale not given here | 340,000 tested, 0.43% active | P07550;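 active means response above a set limit, near 3 SD of response in nonfluorescent compounds, cut at about 42% in these data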;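 further: stock transfer was 100 nL into about 11 µL; a reference agonist was the positive control; negative values mostly stem from fluorescent compounds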
# Vif A3G = inhibitors of Vif binding to APOBEC3G peptide, primary screen, biochemical, TR-FRET, GST-Vif 1-94, biotin-A3G peptide, dose response retest (AID 1117319); TR-FRET GST-Vif / biotin-A3G peptide binding; higher % means a stronger effect; test concentration not given here; strong numbers were not always called active; inhibition, %, or IC50 in µM where a hit was titrated; 260,000 tested, 0.57% active;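 active means above the screen mean plus three standard deviations and confirmed in dose response; inconclusive means results disagree or hit not tested in dose response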;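 further: Vif residues 1-94 fused to GST binding biotinylated APOBEC3G peptide 110-148; 0% = full assay without inhibitor and 100% = GST in place of GST-Vif; retest series ran down from 100 µM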
# Calb FLC = C. albicans growth modulation with fluconazole. C. albicans CaCi-2 (fluconazole-resistant clinical isolate) + fluconazole, Alamar Blue growth, 48 h. growth inhibition, % (test concentration not listed). 300,000 tested, 0.57% active. AID 1979;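 active means most replicates above 75%; inconclusive means exactly half above 75%; inactive means most below 75%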;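 further: all wells also contain fluconazole at 8 µg/ml as a sub-toxic cotreatment; 0% = median of DMSO wells and 100% = median of geldanamycin control wells; wells of about 8 µL received 7.5 nL stock; the first replicate is given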
# Numbers without * were called inactive; u = inconclusive; x = not tested or not shown; & = joins results of further samples.
SMILES,ALR inh,HNF4A DNA FP,LANA-H2B inh,RanGTP-Impb inh,Beta2AR agonist,Vif A3G,Calb FLC
CCc1nnc(NC(=O)c2ncc(Cl)c(Cl)c2Cl)s1,-2,0.0,5.3,0.0,-6,x,8
CCCOc1ccc(/C(O)=C2/C(=O)C(=O)N(CCCn3ccnc3)C2c2ccco2)cc1 (configuration not stated),x,-6.9,4.4,1.9,-9,-1%,-9
CC1Cc2ccccc2N1C(=O)CSc1nnc(Cc2ccccc2)n1CCc1ccccc1 (configuration not stated),x,1.6,x,7.7,6,u,5
CCc1cccc(C)c1NC(=O)CN1C(=O)NC(Cc2ccccc2)C1=O (configuration not stated),0,0.5,-7.0,-1.1,-2,2%,-13
CCn1c(/C=C/Nc2ccccc2)[n+](CC)c2ccc(Cl)cc21,8,1.9,-3.5,-2.9,-11,10%,-11
CCC1Oc2ccccc2N(CC(=O)NCCCN2CCC(C)CC2)C1=O (configuration not stated),-6,0.6,-5.3,3.5,-4,3%,-19
CCNC(=O)C12CCC(C)(C(=O)C1Br)C2(C)C (configuration not stated),x,0.0,1.1,-1.8,11,x,9
CCn1cc(C(=O)NCCCN2CCCCCC2)c(=O)c2cc(S(=O)(=O)N3CCc4ccccc4C3)ccc21,-8,9.2,1.1,-0.5,5,-6%,2
O=C(CCCl)N(Cc1nc2ccccc2c(=O)[nH]1)Cc1cccs1,2,-2.7,4.0,0.3,-8,-7%,56*
Cc1cc(C)c2c(c1)/C(=c1/sc3n(c1=O)CN(c1ccccc1)CN=3)C(=O)N2,x,1.4,-2.6,54*,4,x,26
Cn1c(Cc2ccccc2)nnc1SCC(=O)c1cccs1,56,0.8,-1.2,1.2,5,6%,2
O=C(Cn1cncn1)N/N=C/c1ccncc1,x,1.9,1.9,0.1,3,10%,-17
COc1ccc2cc(C3(C)NC(=O)N(CC(=O)Nc4c(C)n(C)n(-c5ccccc5)c4=O)C3=O)ccc2c1 (configuration not stated),-9,1.2,1.0,6.1,-4,>100µM*,-1
O=C1C2C(C(=O)N1CC1CCCO1)C1C=CC2C12CC2 (configuration not stated),-5,-1.6,-0.5,2.1,4,-7%,-6
CCOC(=O)c1ccc(NC(=O)CSc2nccn2C)cc1,99*,1.7,4.0,2.5,2,7%,7
C=C1CCN([C@H](C(=O)NCc2ccc(Cl)c(Cl)c2)C(C)C)S(=O)(=O)c2ccccc21,3,16,-7.3,-3.3,0,1%,3
CC(=O)Nc1ccc(CC(=O)NCCC(c2ccccc2)c2ccccc2)cc1,-5,-0.5,2.8,0.6,8,2%,-6
CCn1c(C)nc2cc(C(=O)N/N=C/c3ccccc3)ccc21,-14,1.8,-3.9,8.6,1,4%,-2
CCOC(=O)c1ccc(-n2cccc2/C=C2\NC(=O)NC2=O)cc1,11,4.4,3.9,x,19,x,x
Cc1cc(NC(=O)c2ccc(S(=O)(=O)N(C)CC3CCCO3)cc2)no1 (configuration not stated),16,0.5,-2.9,6.8,-9,-1%,13
Cc1ccc2[nH]c(=O)c3cc(C(=O)N4CCN(C(=O)c5ccco5)CC4)sc3c2c1,34,-2.9,4.2,9.1,-6,0%&-7%,4
CC(C)CC1(C)NC(=O)N(CC(=O)Nc2ccc3c(c2)CCC3)C1=O (configuration not stated),-9,0.9,1.4,-0.6,8,1%,-11
COc1ccc(OCCC(=O)NC2CCCCC2)cc1,3,-4.4,-1.0,2.8,-1,-7%,-2
Cc1nnc2ccc(N3CCN(c4cccc(C(F)(F)F)c4)CC3)nn12,-10,3.7,-0.3,1.1,1,19%,15
CCOc1ccccc1NC(=S)Nc1ccc(S(N)(=O)=O)cc1,2,0.1,-3.4,0.2,5,9%,u

# (cont.)
SMILES,ALR inh,HNF4A DNA FP,LANA-H2B inh,RanGTP-Impb inh,Beta2AR agonist,Vif A3G,Calb FLC
Cc1ccccc1N(C(=O)c1csnn1)C(C(=O)NC1CCCC1)c1ccncc1 (configuration not stated),-3,-0.1,-2.3,-1.0,-4,16%,9
O=C(CN1C(=O)COc2ccc(S(=O)(=O)N3CCCC3)cc21)NC1CC1,x,-0.9,5.0,-2.9,2,x,4
CCN(CC)C(=O)Cc1c(O)c2ccccc2[nH]c1=O,x,3.1,-2.8,-6.2,7,6%,8
CC1CC(=O)N(CC(=O)Nc2ccc(F)cc2)c2ccccc2S1(=O)=O (configuration not stated),-6,0.3,-1.3,-1.5,4,-2%,21
COc1ccc(-c2cc(C)no2)cc1S(=O)(=O)Nc1ccccc1,0,0.2,0.6,2.9,-2,x,45
COC(CNC(=O)CC1C(=O)N(Cc2ccccc2)C(C)c2nc3ccccc3n21)OC (configuration not stated),-8,0.2,-1.2,7.3,2,3%,7
COc1ccc(OCCCC(=O)NNC(=O)CCN2CCN(c3ccccc3)CC2)cc1,12,-0.3,0.9,6.8,-6,x,-5
CCC(=O)N1CCc2cc(S(=O)(=O)N3CCCCCC3)ccc21,-8,2.0,0.1,1.1,-14,x,0
C#CCOCCOCCOCCNc1nc(N2CCN(C(=O)[C@H](CCCCN)n3cc([C@@H](N)[C@H](C)CC)nn3)CC2)nc(N2CCN(C(=O)[C@H](CCC(=O)O)n3cc([C@@H](N)CCSC)nn3)CC2)n1,x,-1.2,-1.8,x,-5,4%,x
COc1ccc(N2CCN(C(=O)c3cccc(S(=O)(=O)N4CCCc5ccccc54)c3)CC2)cc1,-2,-3.3,1.4,x,8,0%,x
CC1CC(C)CN(C(=O)CCNS(=O)(=O)c2cccs2)C1 (configuration not stated),-4,0.7,-2.7,-0.8,-6,4%,-34
O=C(CNC(=S)NC(=O)c1ccccc1)c1ccccc1,79*,4.7,-4.6,2.5,-9,x,2
CCCCNC(=O)C1CCCN1C(=O)NC1CCCCC1 (configuration not stated),x,-1.8,-0.6,u,0,1%,-8
COCCCN1C(=O)C(=O)/C(=C(/O)c2ccc(OC)cc2)C12C(=O)N(C)c1ccccc12 (configuration not stated),-7,2.1,-1.8,-1.0,8,-4%,0
CCOC(=O)c1sc2nc(N3CCOCC3)c3c(c2c1N)CCCC3,-1,-1.6,2.8,-2.5,6,-5%,-5
Cc1[nH]c2ccccc2c1CCN(Cc1cccnc1)C(=S)Nc1ccc(F)cc1,7,-0.9,2.7,-2.8,1,-7%,2
CCn1c(SCc2ccc(C(=O)OC)o2)nnc1-c1c[nH]c2ccccc12,-3,0.0,-1.3,1.8,-1,27%,-2
CC(=O)c1ccc(OC2OCCOC2Oc2ccc(C(C)=O)cc2)cc1 (configuration not stated),-17,0.8,-0.1,1.3,-5,6%,19
O=C(NN1C(=O)c2ccc(-c3ccc4c(c3)C(=O)N(NC(=O)c3cccnc3)C4=O)cc2C1=O)c1cccnc1,14,-1.9,1.8,-0.6,12,x,13
O=C(c1ccco1)N1CCN(C(=O)c2cc3c(=O)oc4ccccc4c3s2)CC1,-16,-1.8,-0.6,-0.6,21,-3%,7
C=CCC[C@@H](Cc1ccc(F)cc1)C(=O)OC[C@@H](Cc1ccccc1)NC(=O)[C@@H](CC=C)CC(=O)N[C@@H](CO)Cc1ccccc1,1,-4.2,3.5,x,-3,x,x
COC(=O)c1sccc1NC(=O)CSc1ccccc1NC(=O)CNC(C)C,x,7.0,5.3,-1.3,-3,3%,22
Nc1ccc(S(=O)(=O)Nc2cnc3c(Cl)cccc3n2)cc1,x,-2.0,x,x,-1,-9%,x
COc1ccc(Cn2cc(C(=O)c3ccccc3)c(=O)c3cc(OC)ccc32)cc1,-11,4.8,-0.2,u,-4,7%,8
CC(C)(C)NC(=O)C[C@H]1C[C@H](C(=O)N2CCCCC2)[C@@]2(CCc3ccccc3)c3[nH]c4ccc(Cl)cc4c3CCN2C1=O,x,-1.9,x,x,-1,-3%,x

# An excerpt from above, reduced to HNF4A DNA FP and RanGTP-Impb inh.
Compound | HNF4A DNA FP | RanGTP-Impb inh
COC(CNC(=O)CC1C(=O)N(Cc2ccccc2)C(C)c2nc3ccccc3n21)OC (configuration not stated) | 0.2 | 7.3
COc1ccc(OCCCC(=O)NNC(=O)CCN2CCN(c3ccccc3)CC2)cc1 | -0.3 | 6.8
CCC(=O)N1CCc2cc(S(=O)(=O)N3CCCCCC3)ccc21 | 2.0 | 1.1

# Remaining list, next part
SMILES,ALR inh,HNF4A DNA FP,LANA-H2B inh,RanGTP-Impb inh,Beta2AR agonist,Vif A3G,Calb FLC
C=CCN1C(=O)/C(=C\c2ccc(C)cc2)N=C1SCC(=O)NCCC,98*,4.5,-4.0,1.0,0,-14%,1
Cc1cc(Nc2ccc([N+](=O)[O-])cc2)c2ccccc2n1,-2,4.8,1.1,1.0,-1,x,21
COc1ccccc1CCNC(=O)c1c(C)nn(CC(C)C)c1Cl,-16,-2.4,-0.9,u,7,x,2
O=C(Cn1c(=O)n(Cc2ccco2)c(=O)c2c3c(sc21)CCCC3)Nc1ccccc1,4,11,-4.5,1.9,9,-1%,27
Cc1ccc2c(c1)nnn2C1CCN(CC(=O)N2c3ccccc3CC2C)CC1 (configuration not stated),4,3.8,0.8,10,-4,-10%,7
CCOc1ncccc1C(=O)Nc1ccc2nc(C)sc2c1,x,-1.6,0.5,-2.1,-5,x,-2
CCOC(=O)C(C(C)=O)c1nc(C)nc2c1nnn2Cc1ccccc1Cl (configuration not stated),x,0.5,x,5.6,-1,8%,25
CCn1cc(C(=O)NCc2ccc(C)cc2)c(=O)c2cc(S(=O)(=O)N(C)C)ccc21,-3,0.7,3.7,-1.5,-7,-12%,4
CCC(=O)Nc1cc(NC(=O)CSc2ncc(-c3ccc(F)cc3)n2Cc2ccco2)ccc1C,-6,0.8,-0.7,-0.5,0,27%,-7

# By substructure: the entries above with a thiophene ring, fused or not.
SMILES,ALR inh,HNF4A DNA FP,LANA-H2B inh,RanGTP-Impb inh,Beta2AR agonist,Vif A3G,Calb FLC
O=C(CCCl)N(Cc1nc2ccccc2c(=O)[nH]1)Cc1cccs1,2,-2.7,4.0,0.3,-8,-7%,56*
Cn1c(Cc2ccccc2)nnc1SCC(=O)c1cccs1,56,0.8,-1.2,1.2,5,6%,2
Cc1ccc2[nH]c(=O)c3cc(C(=O)N4CCN(C(=O)c5ccco5)CC4)sc3c2c1,34,-2.9,4.2,9.1,-6,0%&-7%,4
CC1CC(C)CN(C(=O)CCNS(=O)(=O)c2cccs2)C1 (configuration not stated),-4,0.7,-2.7,-0.8,-6,4%,-34
CCOC(=O)c1sc2nc(N3CCOCC3)c3c(c2c1N)CCCC3,-1,-1.6,2.8,-2.5,6,-5%,-5
O=C(c1ccco1)N1CCN(C(=O)c2cc3c(=O)oc4ccccc4c3s2)CC1,-16,-1.8,-0.6,-0.6,21,-3%,7
COC(=O)c1sccc1NC(=O)CSc1ccccc1NC(=O)CNC(C)C,x,7.0,5.3,-1.3,-3,3%,22
O=C(Cn1c(=O)n(Cc2ccco2)c(=O)c2c3c(sc21)CCCC3)Nc1ccccc1,4,11,-4.5,1.9,9,-1%,27

# Bioassay records from PubChem BioAssay.
